Screening data: PubChem BioAssay, Broad Institute
T cruzi inh: blocks replication of Trypanosoma cruzi | T. cruzi beta-gal in NIH3T3, luminescence, 90 h | inhibition, % (test concentration not listed) | actives 1.4% (n = 300,000);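 active means mean inhibition across valid replicates above about 55%, limit read from the data; inconclusive means mean below that limit but half or more replicates reach it; inactive means mean below it, under half of replicates reach it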;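 further: signal also drops with host cell toxicity which is not excluded here; 0% = plate median of DMSO wells and 100% = zero luminescence signal; higher percent means less beta-gal luminescence so fewer parasites; stock transfer was 50 nL into about 50 µL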
AF4-AF9 inh: MLL-AF4/AF9 protein interaction inhibition. AlphaScreen, biotin-AF4 peptide binding to FLAG-AF9. inhibition, % at 10 µM. actives 0.47% (n = 350,000). AID 651704;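 active means every replicate reaching a set inhibition limit, whatever the replicate mean, cut at about 25% in these data; inconclusive means mean inhibition reaches that limit but some replicates miss it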;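 further: 0% = plate neutral control median and 100% = total signal loss; the record names both 10 and 1 µM as test concentration; the first replicate is given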
Target sequence (P42568 whole entry, looked up): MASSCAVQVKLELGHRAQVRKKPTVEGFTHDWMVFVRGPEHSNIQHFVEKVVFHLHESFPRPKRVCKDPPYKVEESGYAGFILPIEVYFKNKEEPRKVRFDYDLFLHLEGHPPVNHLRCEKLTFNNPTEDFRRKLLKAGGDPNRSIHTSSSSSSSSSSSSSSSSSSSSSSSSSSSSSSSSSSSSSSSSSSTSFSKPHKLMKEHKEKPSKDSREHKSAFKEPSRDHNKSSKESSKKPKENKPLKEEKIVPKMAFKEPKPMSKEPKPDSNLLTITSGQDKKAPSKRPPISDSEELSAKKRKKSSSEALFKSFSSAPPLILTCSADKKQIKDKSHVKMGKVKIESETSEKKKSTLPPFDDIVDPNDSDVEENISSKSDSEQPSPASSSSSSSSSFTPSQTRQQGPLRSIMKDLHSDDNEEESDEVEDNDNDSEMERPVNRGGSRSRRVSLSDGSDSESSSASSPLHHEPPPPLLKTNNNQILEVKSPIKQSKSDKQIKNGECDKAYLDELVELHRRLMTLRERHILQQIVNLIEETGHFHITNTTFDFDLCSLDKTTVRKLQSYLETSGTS
ALR H2O2 inh: human ALR oxidase inhibition via reduced H2O2; P55789; purified ALR, DTT oxidation, H2O2 HRP-luminol luminescence; inhibition, % (test concentration not listed); actives 3.8% (n = 290,000);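 active means mean and each replicate at 75% or more; inconclusive means only one of the two met; inactive means neither met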;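 further: stock transfer was 7.5 nL into about 7.5 µL; 0% = neutral wells and 100% = wells with inactivated enzyme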
Target sequence (P55789 whole entry, looked up): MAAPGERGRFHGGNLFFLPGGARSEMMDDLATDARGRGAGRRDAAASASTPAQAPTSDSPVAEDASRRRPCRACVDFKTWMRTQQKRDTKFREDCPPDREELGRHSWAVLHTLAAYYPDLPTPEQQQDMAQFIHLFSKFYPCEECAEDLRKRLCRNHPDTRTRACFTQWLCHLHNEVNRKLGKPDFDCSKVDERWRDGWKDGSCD
Ecoli rRNA inh: inhibits bacterial ribosomal RNA function over humanized ribosomes. E. coli WT GFP vs humanized-ribosome RFP mutants, fluorescence, 24 h; active compounds read low; DMSO median 0, no signal -100. GFP signal change (wild-type ribosome), % (test concentration not listed). actives 1.6% (n = 350,000). AID 720706;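 active means significant combined selectivity score with lowered wild-type GFP, culture density cut under 30%, mutant RFP and density less affected; inactive means any of these conditions unmet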; further: one replicate is shown; some compounds called inactive have numbers as strong as hits
FGF22 binding: FGF22 (human) thermal shift binding. actives 1.5% (n = 340,000). AID 651658. calls only at 9.99 µM. Q9HCT0. recombinant FGF22 thermal shift, SYPRO orange fluorescence; percent of sucrose octasulfate shift, DMSO zero;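 active means melting point raised past a set limit in the mean and every replicate; inconclusive means no clear call; three in four hits are not shown here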
Target sequence (Q9HCT0 whole entry, looked up): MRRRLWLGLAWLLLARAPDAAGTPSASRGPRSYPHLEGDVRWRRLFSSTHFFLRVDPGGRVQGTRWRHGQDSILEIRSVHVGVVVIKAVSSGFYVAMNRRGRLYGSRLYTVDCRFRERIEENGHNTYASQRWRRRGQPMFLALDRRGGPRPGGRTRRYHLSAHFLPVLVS
Beta cell apopt: blocks beta cell apoptosis; AID 435005; protection from apoptosis, % (concentration not given with the values); INS-1E cytokine-induced death, ATP luminescence, 48 h; percent of positive-control rescue, neutral wells zero; actives 0.8% (n = 300,000);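 active means all replicates at 75% or more, or half of them and the mean; inconclusive means half reach 75% but not the mean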;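 further: 0% = cytokine-treated negative control wells and 100% = positive control rescue; higher means more ATP so stronger rescue from cytokine killing; wells of about 40 µL received 100 nL stock; the first replicate is given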
RanGTP-Imp inh: inhibitors of RanGTP-importin-beta interaction, primary screen, biochemical, FRET, CFP-Ran, YFP-importin-beta, homogeneous; cell-free CFP-Ran/YFP-importin-beta FRET ratio; inhibition, % (test concentration not listed); actives 1.1% (n = 300,000); AID 2216;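 active means most replicates above 15%; inconclusive means exactly half above 15%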;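 further: 0% = DMSO wells and 100% = Ran loaded with GDP instead of GTP; wells of about 40 µL received 100 nL stock; the first replicate is given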
Calb FLC: affects C. albicans growth with fluconazole. actives 0.57% (n = 300,000). growth inhibition, % (concentration not given with the values). C. albicans CaCi-2 (fluconazole-resistant clinical isolate) + fluconazole, Alamar Blue growth, 48 h;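 active means most replicates above 75%; inconclusive means exactly half above 75%; inactive means most below 75%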;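 further: all wells also contain fluconazole at 8 µg/ml as a sub-toxic cotreatment; 0% = median of DMSO wells and 100% = median of geldanamycin control wells; wells of about 8 µL received 7.5 nL stock; the first replicate is given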
Ecoli rRNA inh OD600: second read-out of Ecoli rRNA inh, no call of its own (marks repeat the call); OD600 change, %; measured here: OD600 growth;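 optical density of the mix in the first replicate; 0 = DMSO median and -100 = no signal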
Ecoli rRNA inh RFP: further read-out of Ecoli rRNA inh, marked with its call; RFP signal change, %; measured here: RFP humanized mutant strains;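 first replicate; 0 = DMSO median and -100 = no signal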
The depositor's hits bear a star; i = inactive; u = inconclusive; x = not tested or not shown. Some of the compounds tested; the hit share may differ from the screen's.

SMILES	T cruzi inh	AF4-AF9 inh	ALR H2O2 inh	Ecoli rRNA inh	Ecoli rRNA inh OD600	Ecoli rRNA inh RFP	FGF22 binding	Beta cell apopt	RanGTP-Imp inh	Calb FLC
CC(=O)c1ccc(NC(=O)C(C)N2CCN(C/C=C/c3ccccc3)CC2)cc1 (stereo not given)	39	4.6	13	1	-8	-0.3	i	x	1.6	-6
CC(C)(C)OC(=O)NN1CC(=O)N2[C@@H](Cc3c([nH]c4ccccc34)C2(C)C)C1=O	15	-2.1	-2	-3	-7	2.4	i	-2	2.1	-1
Cc1cc(OCCN2CCC(Cc3ccccc3)CC2)ccc1[N+](=O)[O-]	50	10	-41	-18	-24	18	i	0	2.6	-5
O=C(O)CC/C(=N\Nc1ccc(Cl)cc1)c1cccs1	-3	12	-14	-28*	-12*	0.6*	i	-2	u	-22
CCC1CCCCN1C(=O)C(=O)c1cn(CC(=O)N(CC)CC)c2ccccc12 (stereo not given)	12	-1.3	-1	4	-1	1.4	i	0	u	-6
Cc1cccc(NC(=O)c2ccccn2)c1C	-9	x	x	x	x	x	x	-5	-31	-19
O=C(O)c1ccc(OCCn2ccnc2)cc1	12	1.0	-21	4	3	-1.9	i	-2	2.0	x
Cc1cc([N+](=O)[O-])nn1CC(=O)N/N=C/c1ccccc1O	-4	x	4	3	0	-4.5	i	-5	-0.8	-6
Cc1sc2nc(SCC(=O)N(CCO)CCO)nc(N)c2c1C	6	-1.3	-5	3	10	0.7	x	-3	2.5	1
CCN(C(=O)COC(=O)c1ccc(C)c(S(=O)(=O)N2CCCCC2)c1)C1CCS(=O)(=O)C1 (stereo not given)	-4	1.3	-3	3	5	2.2	i	-9	-0.8	-2
CCC1CCCCN1S(=O)(=O)c1ccc([N+](=O)[O-])cc1 (stereo not given)	12	-22	-14	1	-2	-0.8	i	-1	-1.8	0
COc1ccc2c(c1)c(=O)oc1cc(OCC(=O)NC3CCCCC3)ccc12	18	x	-4	x	x	x	x	2	u	18
Cc1ccccc1Sc1c(C#N)c(-c2ccccc2)nn1C	8	x	-1	x	x	x	x	-1	8.1	-25
Cc1sc2nc(SCC(=O)N(C)Cc3ccccc3)n(-c3ccccc3)c(=O)c2c1C	36	x	-6	x	x	x	x	0	-1.9	-5
COc1cc2c(cc1OC)CN(C1CCCN(Cc3cc(Cl)ccc3O)C1)CC2 (stereo not given)	50	3.4	4	-28*	-20*	5.7*	i	-7	4.9	-1
COc1ccc(C(=O)NCc2ccncc2)cc1S(=O)(=O)NCc1ccc(Cl)cc1	x	-23	x	0	-5	3.0	i	-2	x	x
COc1ccc(CCN2C(=NC(=O)CCC(=O)O)SC3CS(=O)(=O)CC32)cc1 (stereo not given)	-19	x	-6	x	x	x	x	1	-1.5	-4
Cc1ccc(C)c(N2CC(C(=O)OCC(=O)Nc3cc(C)on3)CC2=O)c1 (stereo not given)	-9	1.3	2	9	15	-1.6	i	-12	-1.0	-1
CCCCNC(C(=O)Nc1ccc([N+](=O)[O-])cc1Br)c1ccccc1 (stereo not given)	-15	-0.1	-8	x	x	x	i	-7	3.9	14
CC(=O)Nc1ccc(N2C(=O)CSC2c2cccc(Br)c2)cc1 (stereo not given)	-7	u	66	0	1	-0.3	i	1	-3.2	15
c1ccc(CN2CCC3(CC2)Nc2ccccc2S3)cc1	24	14	16	x	x	x	i	-1	6.6	3
C=CCN1C(=O)N(/C=C/C)c2cccc3cccc1c23	2	x	21	x	x	x	x	-7	3.4	-5
CCOC(=O)c1sc2nc(CN3CCCCC3)nc(Cl)c2c1C	1	x	4	x	x	x	x	-2	0.8	-18
Cc1cc(NC(=O)CSc2nc(=O)n3cc(Cl)ccc3n2)no1	4	-1.4	-7	14	8	0.5	i	x	-1.5	-3
CCn1nnc(-c2ccc(N)cc2)n1	-6	-1.8	x	11	14	0.1	i	-4	2.0	u

Brought forward from above: 4 compounds, followed by the next part.
SMILES	T cruzi inh	AF4-AF9 inh	ALR H2O2 inh	Ecoli rRNA inh	Ecoli rRNA inh OD600	Ecoli rRNA inh RFP	FGF22 binding	Beta cell apopt	RanGTP-Imp inh	Calb FLC
C=CCN1C(=O)N(/C=C/C)c2cccc3cccc1c23	2	x	21	x	x	x	x	-7	3.4	-5
CCOC(=O)c1sc2nc(CN3CCCCC3)nc(Cl)c2c1C	1	x	4	x	x	x	x	-2	0.8	-18
Cc1cc(NC(=O)CSc2nc(=O)n3cc(Cl)ccc3n2)no1	4	-1.4	-7	14	8	0.5	i	x	-1.5	-3
CCn1nnc(-c2ccc(N)cc2)n1	-6	-1.8	x	11	14	0.1	i	-4	2.0	u
Cc1ccc(C(=O)c2ccccc2C(=O)OCC(=O)Nc2cccc([N+](=O)[O-])c2)cc1	5	x	-4	x	x	x	x	0	7.4	-5
Cc1ccc(S(=O)(=O)Nc2ccc3nc(-c4cccn4C)[nH]c3c2)cc1	8	x	16	x	x	x	x	4	1.8	2
O=C(N/C(=C\c1ccco1)C(=O)N1CCCC(CO)C1)c1ccccc1 (stereo not given)	-4	-0.7	8	8	4	-0.3	i	-3	0.5	4
C=CCNC(=S)N/N=C(\C)c1ccccn1	54	x	22	x	x	x	x	93*	-0.8	115*
CCOC(=O)c1cn(-c2ccc(F)c(F)c2F)c2c(F)c(F)c(F)cc2c1=O	-9	x	20	x	x	x	x	-3	-2.1	-3
NC(=O)c1ccc(NC(=O)COC(=O)C2COc3ccccc3O2)cc1 (stereo not given)	x	-14	x	13	16	0.7	i	-1	x	x
Cc1noc(NS(=O)(=O)c2ccc(NC(=O)COc3ccc(C#N)cc3)cc2)c1C	x	-1.8	21	14	9	-2.0	i	-8	x	x
O=C(COC(=O)c1cccc(NS(=O)(=O)c2ccc(F)c(F)c2)c1)NC(=O)NC1CCCC1	-45	4.7	-9	-36*	-22*	1.4*	i	-1	2.4	30
COc1ccc(S(=O)(=O)N2CCCCCC2)cc1C(=O)OC(C)C(N)=O (stereo not given)	8	1.3	-2	-1	9	3.5	i	-9	1.2	9
CN(C)c1ccc(CNCCC2CCOC(C)(C)C2)cc1 (stereo not given)	58*	x	11	x	x	x	x	-4	1.2	-1
CC(C)CC(COCc1ccc(F)cc1)N1CCN(C(=O)c2cccc(C(F)(F)F)c2)CCC1=O (stereo not given)	7	-7.9	-6	x	x	x	i	2	5.0	-9
C=CCNc1nc(-c2ccc(OC)cc2OC)cs1	24	x	34	x	x	x	x	1	6.9	-10
CC1C/C(=N/NC(=O)c2ccc(CSc3nc4ccccc4[nH]3)cc2)CC(C)(C)C1 (stereo not given)	11	-0.1	-47	1	-6	0.0	i	-3	1.0	-2
O=C(Cc1ccc(Br)cc1)Nc1ccc(S(=O)(=O)Nc2ncccn2)cc1	-3	-1.8	-5	10	13	-0.1	i	-8	1.4	15
CC1=C(C(N)=O)C(c2ccc(Br)cc2)n2nc(CCCO)nc2N1 (stereo not given)	-2	1.5	-7	4	25	14	i	-6	7.0	-4
Cc1cc(Cl)ccc1NC(=S)NCCc1ccc(S(N)(=O)=O)cc1	-2	x	3	-17	-4	-13	x	0	0.3	2
COc1ccc(CCNC(=O)Cn2c(=O)oc3cc(Cl)ccc32)cc1OC	11	1.6	-3	6	-2	-4.4	i	2	-2.5	-2
Cc1cc(C)c2c(n1)sc1c(=O)[nH]c(SCc3ccccc3)nc12	6	x	x	x	x	x	x	2	0.4	23
CC1CCCN(CC(=O)Nc2cc(S(=O)(=O)N3CCOCC3)ccc2N2CCCC2)C1 (stereo not given)	x	u	-3	2	2	-1.8	i	1	x	x
O=S1(=O)C=C(SCCN2CCCC2)c2ccccc21	28	x	-5	x	x	x	x	2	-2.8	2
CCCN1CCN(CCCNC(=O)C2CCN(c3nnc(-n4cccc4)s3)CC2)CC1	9	x	-7	x	x	x	x	-2	4.3	-5
CCc1nc2sc(C)c(C)c2c(=O)n1CCO	x	x	-4	x	x	x	x	-2	-3.4	1
COc1ccc(CC(C(=O)Nc2cc(C)ccc2C)/C(N)=N/O)cc1 (stereo not given)	-6	x	-7	x	x	x	x	4	7.9	8
Cc1ccc(-c2nc(CN(CC3CCC3)CC3CCCO3)c(C)o2)s1 (stereo not given)	3	3.2	4	-6	-13	-3.8	i	-2	0.9	-25
CCN(CC)S(=O)(=O)c1cc(C(=O)OCC(=O)NC2CCCc3ccccc32)ccc1C (stereo not given)	-13	x	-11	x	x	x	x	-11	7.1	44

Full records, quoted from the list.
`Cc1ccc(S(=O)(=O)Nc2ccc3nc(-c4cccn4C)[nH]c3c2)cc1` is listed with T cruzi inh: 8; AF4-AF9 inh: x; ALR H2O2 inh: 16; Ecoli rRNA inh: x; Ecoli rRNA inh OD600: x; Ecoli rRNA inh RFP: x; FGF22 binding: x; Beta cell apopt: 4; RanGTP-Imp inh: 1.8; Calb FLC: 2
`Cc1sc2nc(SCC(=O)N(C)Cc3ccccc3)n(-c3ccccc3)c(=O)c2c1C` is listed with T cruzi inh: 36; AF4-AF9 inh: x; ALR H2O2 inh: -6; Ecoli rRNA inh: x; Ecoli rRNA inh OD600: x; Ecoli rRNA inh RFP: x; FGF22 binding: x; Beta cell apopt: 0; RanGTP-Imp inh: -1.9; Calb FLC: -5

The listing continues.
SMILES	T cruzi inh	AF4-AF9 inh	ALR H2O2 inh	Ecoli rRNA inh	Ecoli rRNA inh OD600	Ecoli rRNA inh RFP	FGF22 binding	Beta cell apopt	RanGTP-Imp inh	Calb FLC
COc1cccc(NC(=O)CNC(=O)N2CC(=O)Nc3ccccc32)c1	-12	0.0	-2	-14	-2	-3.2	i	x	9.5	5
O=[N+]([O-])c1ccc(N2CCCC2)cc1NC1CC1	13	6.5	7	11	-7	-4.6	i	1	-0.6	-14
CSc1nnc(Cc2sc(-c3ccccc3)nc2-c2ccccc2)o1	23	x	-1	x	x	x	x	24	3.1	19
COc1ccc(C2C([N+](=O)[O-])=C(C)N(C)C(=O)N2C)cc1OC (stereo not given)	6	1.0	3	6	9	0.7	i	x	-0.5	6
O=S(=O)(NCCCc1ccccc1)c1ccc(Cl)cc1	-6	-3.4	-11	x	x	x	i	-6	-2.2	-3
O=C(CSc1ncn[nH]1)N/N=C/c1ccc(F)cc1	-13	0.0	0	8	8	-1.2	i	-6	-2.9	0
CN(C(=O)c1ccno1)c1nnc(-c2cccnc2)s1	-15	x	-10	32	20	2.2	x	-13	2.9	2
COc1ccc(Br)c(C(=O)Nc2cccc(S(=O)(=O)N3CCOCC3)c2)c1	x	4.3	-2	-7	-15	-3.1	i	7	x	x
CCN(CC(=O)Nc1c(F)cccc1F)C(=O)Cc1csc(-c2ccc(OC)c(OC)c2)n1	9	8.2	-9	2	0	1.0	x	x	2.3	-7
CCOC(=O)C1=C(C)N(c2ccccc2)C(=O)/C1=C\c1cccs1	1	x	8	x	x	x	x	-5	-3.0	-2
